# Screening data (PubChem BioAssay)
# StopGo reporter – FMDV 2A StopGo reporter, luciferase signal. 410,000 compounds, 1.2% hits. Potency, µM (series often up to 57.9 µM), for the others: at the highest dose signal change, negative = less light. AID 1159524. human cells with a luciferase reporter of 2A StopGo recoding; control for the full effect not named in the record; active = well fitted falling curve with a large enough effect; inconclusive = small, poorly fitted or top-dose-only effect; inactive = no such curve, though single readings can be large or run the other way; tested in HEK293T cells; note: % is set by controls: 0 for no effect and ±100 for the full control effect; nearly all actives have a fitted effect of over 45% in size; luciferase light after 4 h
# Marburg entry inh – inhibitors of Marburg virus binding or cell entry | Marburg virus pseudotyped entry inhibition, cell reporter; control for the full effect not named in the record; about a third of the inactives were read at about 46 µM | Potency, µM (highest dose often 37.8 µM), for the others: top-dose activity change, negative = inhibition, hits mostly inhibitors | 300,000 compounds, 1.8% hits | AID 540276; active = well fitted inhibition curve with a large enough effect; inconclusive = small, poorly fitted or top-dose-only effect, or effect the other way; inactive = flat fitted curve, though single readings scatter; tested in HEK293 cells; about a fifth of its hits are not listed in these tables; note: % is set by controls: 0 for no effect and ±100 for the full control effect; luciferase read-out
# Lassa entry inh – Lassa virus entry inhibition; Lassa virus pseudotype entry inhibition, cell reporter; control for the full effect not named in the record; AID 540256; Potency, µM (highest dose often 37.9 µM), inactives show top-dose activity change, negative = inhibition, most hits filed as inhibitors; 300,000 compounds, 1.2% hits; active means well fitted inhibition curve with a large enough effect; inconclusive means small, poorly fitted or top-dose-only effect, or effect the other way; inactive means flat fitted curve, though single readings scatter; tested in HEK293 cells; note: % is set by controls: 0 for no effect and ±100 for the full control effect; nearly all actives have a fitted effect of over 50% in size; luciferase read-out
# RE007 growth inh – less growth of the S. pombe RE007 Vpr strain | S. pombe RE007 Vpr strain, BacTiter-Glo ATP luminescence, 24 h; control for the full effect not named in the record | Potency, µM (top dose mostly 92.2 µM), without a hit: at the top dose activity change, negative = less growth | 360,000 compounds, 0.21% hits | AID 651644; active = well fitted falling curve with a large enough effect; inconclusive = small, poorly fitted or top-dose-only effect; inactive = no such curve, though single readings can be large or run the other way;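 note: % is set by controls: 0 for no effect and ±100 for the full control effect; nearly all actives have a fitted effect of over 50% in size; the assay follows cell death caused by Vpr and the record does not say whether a fall means rescue or toxicity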
#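 Fission yeast strain RE007, carrying one chromosomally integrated HIV-1 vpr copy, was seeded at OD 0.01 in PMG+AL medium with 23 nL pinned compound. After 24 h at 30 °C and 99% humidity, viability was read by BacTiter-Glo luminescence.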
# SARS PLpro yeast – blocks SARS-CoV papain-like protease in a yeast assay; S. cerevisiae expressing SARS-CoV PLpro, growth rescue; control for the full effect not named in the record; Potency, µM (series often up to 32.9 µM), for inactives: top-dose activity, positive = growth rescue; 330,000 compounds, 0.19% hits; note: 0% is about no effect; nearly all actives have a fitted effect of over 55% in size; growth read by luminescence after 48 h
# Cruzain Triton – blocks cruzain activity in presence of Triton detergent. P25779. purified cruzain, Z-FR-AMC fluorescence, 0.01% Triton. Potency, µM, for the others: max response, negative = inhibition, hits mostly inhibitors. 200,000 compounds, 0.43% hits. AID 1478; active = well fitted curve in the direction sought with a large enough effect; inconclusive = small, poorly fitted or top-dose-only effect, or another doubt; inactive = no such curve, though single readings can be large; an effect the other way counts as inactive or inconclusive;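 note: plate controls were neutral wells for no effect and buffer without enzyme for full effect; nearly all actives have a fitted effect of over 40% in size; top concentration of the series not given in the record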
# Target sequence (P25779 123-467 limits assumed): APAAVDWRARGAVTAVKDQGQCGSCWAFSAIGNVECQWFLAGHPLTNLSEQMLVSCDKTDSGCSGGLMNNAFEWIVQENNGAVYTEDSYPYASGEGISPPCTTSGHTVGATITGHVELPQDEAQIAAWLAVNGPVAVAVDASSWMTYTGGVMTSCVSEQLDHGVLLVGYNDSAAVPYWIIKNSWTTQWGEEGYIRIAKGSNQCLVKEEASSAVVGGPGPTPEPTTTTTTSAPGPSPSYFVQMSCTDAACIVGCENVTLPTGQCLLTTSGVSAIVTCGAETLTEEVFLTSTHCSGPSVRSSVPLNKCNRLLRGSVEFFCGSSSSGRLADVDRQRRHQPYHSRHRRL
#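 Z-FR-AMC hydrolysis (2 uM substrate) by cruzain (1.5 nM) monitored kinetically at ex 360/em 450 nm after 15 min room-temperature compound exposure; 0.01% Triton X-100, pH 5.5, 5 mM DTT.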
# Cruzain inh noDet – inhibitors of Trypanosoma cruzi cruzain without detergent; purified cruzain, Z-FR-AMC fluorescence, no detergent; Potency, µM, without a hit: max response, negative = inhibition, actives largely listed as inhibitors; 200,000 compounds, 2.3% hits; active = well fitted curve in the direction sought with a large enough effect; inconclusive = small, poorly fitted or top-dose-only effect, or another doubt; inactive = no such curve, though single readings can be large; an effect the other way counts as inactive or inconclusive;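 note: plate controls were enzyme without inhibitor for no effect and buffer without enzyme for full effect; nearly all actives have a fitted effect of over 40% in size; top concentration of the series not given in the record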
#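 Purified cruzain at 1.5 nM, pre-incubated 15 min with compound at room temperature in 100 mM sodium acetate pH 5.5, 5 mM DTT, 0.00005% Triton X-100. Reaction started with 2 uM Z-FR-AMC; AMC fluorescence increase over 60 s gives rate.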
# NS1 inh – inhibitors of influenza NS1 protein function. S. cerevisiae slowed by influenza A NS1, growth recovery by OD600. 270,000 compounds, 0.4% hits. AID 2326. Potency, µM (doses to about 46.1 µM), without a hit: top-dose activity, positive = more growth; note: actives are rising curves; nearly all actives have a fitted effect of over 50% in size
#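 OD600 was taken as the measure of yeast growth restored by compound in an NS1-expressing S. cerevisiae strain. Cells had been washed out of glucose medium and diluted 1:100 into galactose -URA medium, pH 6.0.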
# * marks the source's active call; other numbers are inactive results; ? = inconclusive; . = no result given; & = joins results of further samples; [ ] = another dose, or the depositor's remark. Unless noted, calls come from the whole dose curve; as a rule, active means well fitted rising curve with a large enough effect; inconclusive means small, poorly fitted or top-dose-only effect; inactive means no such curve, though single readings can be large or run the other way. Potency is the fitted concentration of half-maximal effect. Random draw from the library; 4.7% or so of the library scored in one or more.
1. O=C(O)c1cc2n(n1)C(C(F)(F)F)CC(C1CC1)N2 (stereo unspecified)
2. Cc1nc2sccn2c(=O)c1CCN1CCC(=C(c2ccccc2)c2ccc(F)cc2)CC1
3. COc1cccc(/C=C2\SC(=O)N(CCC(=O)NCCCn3ccnc3)C2=O)c1
4. O=C(NCCCc1ccccc1)C1CCC(=O)N(CCc2ccc(Cl)cc2)C1 (stereo unspecified)
5. CCOc1ccc(S(=O)(=O)N(CC(N)=O)c2ccc(C)cc2)cc1
6. CCOC(=O)CNC(=O)Cn1cnc2c(nnn2-c2cccc(Cl)c2)c1=O
7. COCCN1Cc2cccc(C(=O)Nc3ccc(C(=O)OC)cc3)c2C1=O
8. Cc1cc(C)c(C#N)c(OCc2ccc(Cl)nc2)n1

Screen / compound no.	1	2	3	4	5	6	7	8
StopGo reporter	14.8%	-18.0%	-1.5%	10.1%	-14.6%	-15.1%	-1.1%	14.6%
Marburg entry inh	.	?	.	-2.8%	-23.1%	0.5%	0.7%[46.1 µM]	?
Lassa entry inh	.	?	.	5.4%	-1.1%	11.4%	8.3%[46.1 µM]	-22.2%
RE007 growth inh	10.6%	.	-2.6%	1.8%	0.6%	-4.0%	.	0.6%
SARS PLpro yeast	2.1%	4.6%	3.3%	4.3%	-1.7%	7.0%	.	-2.3%
Cruzain Triton	.	0.4%&3.4%	.	.	4.2%	-3.1%	-0.1%	.
Cruzain inh noDet	.	4.5%&1.8%	.	.	1.7%	-8.2%	-7.0%	.
NS1 inh	3.8%	?	4.3%	-8.1%	7.1%	-9.4%	.	-5.9%

9. CC1CCN(C(=O)C(Cc2ccccc2)n2cccc2)CC1 (stereo unspecified)
10. CN1CCN(C(=S)Nc2cccc(C(F)(F)F)c2)CC1
11. O=C(COC(=O)c1cccs1)Nc1cccc(S(=O)(=O)N2CCOCC2)c1
12. COc1cccc(-c2c(C(=O)N/N=C(\C)COc3ccccc3)nnn2-c2nonc2N)c1
13. COc1ccc(S(=O)(=O)NCC(=O)N(CC(=O)NCC2CCCO2)Cc2ccc(F)cc2)cc1 (stereo unspecified)
14. Cc1cc(Cl)ccc1OC(C)C(=O)Nc1ccc(S(=O)(=O)Nc2cnc3ccccc3n2)cc1 (stereo unspecified)
15. COCC(=O)Nc1nnc(CCc2ccccc2)s1
16. CN(Cc1ccccc1)c1nc2c(c(=O)n(C)c(=O)n2C)n1CCCc1ccccc1

Screen / compound no.	9	10	11	12	13	14	15	16
StopGo reporter	-24.6%	6.6%	-14.1%	-13.9%	-0.5%	50.6%[activator]	30.4%[activator]	?
Marburg entry inh	0.4%	?	24.0%	.	4.9%[46.1 µM]	-21.8%	19.3%	?
Lassa entry inh	.	-18.4%	10.2%	.	-7.5%	1.2%	5.6%	12.6µM*
RE007 growth inh	-4.7%	-12.8%	-3.2%	-2.8%	6.8%	8.7%	20.9%	-0.8%
SARS PLpro yeast	1.6%	5.5%	-18.8%	2.3%	1.6%	-13.9%	-11.5%	-11.1%
Cruzain Triton	-8.1%	2.8%	5.8%	.	.	25.1µM*	5.9%	-6.9%
Cruzain inh noDet	8.4%	-2.8%	-8.2%	.	.	?	3.8%	?
NS1 inh	-7.1%	-3.8%	6.4%	-3.6%	15.1%	22.9%	-9.7%	-42.2%

17. CC(NC(=O)CN(C)Cc1cccs1)c1ccccc1 (stereo unspecified)
18. O=C(NC1CCCCC1)C1CCCN1S(=O)(=O)c1ccc(Cl)cc1 (stereo unspecified)
19. Cc1ccc(C(=O)NCCS(=O)(=O)N2CCN(c3ccccc3F)CC2)cc1[N+](=O)[O-]
20. Cc1[nH]c(=O)[nH]c(=O)c1S(=O)(=O)N1CCCC(C(=O)N2CCN(c3ccccc3Cl)CC2)C1 (stereo unspecified)
21. COc1ccc(-n2c(COc3cccc(C)c3)nnc2SCC(=O)O)cc1
22. O=c1[nH]c(=O)n(C2CCCCC2)c(O)c1C=Nc1ccc(N2CCOCC2)cc1
23. O=C1NC(=O)C(=Cc2ccc(Cl)c(Cl)c2)S1
24. Cc1ccc(C)c(N(CC(=O)NCCC2=CCCCC2)S(C)(=O)=O)c1

Screen / compound no.	17	18	19	20	21	22	23	24
StopGo reporter	13.5%	-19.9%	-27.4%	-13.3%	6.9%	?	5.0%	-3.9%
Marburg entry inh	-18.5%[46.1 µM]	10.3%[46.1 µM]	.	1.4%[46.1 µM]	-20.5%[46.1 µM]	?	14.1%[46.1 µM]	-22.1%
Lassa entry inh	3.3%[46.1 µM]	-0.1%	.	2.1%	-11.0%[46.1 µM]	2.2%	0.0%[46.1 µM]	-2.2%
RE007 growth inh	-15.9%	5.3%	11.2%	2.3%	-18.7%	8.4%	-5.0%	0.0%
SARS PLpro yeast	0.1%	13.0%	4.3%	0.7%	19.7%	17.5%	.	0.6%
Cruzain Triton	.	.	.	1.0%	.	0.0%	.	-0.8%
Cruzain inh noDet	.	.	.	15.2%	.	?	.	13.2%
NS1 inh	.	-15.5%	-13.9%	-9.6%	25.8%	22.5%	.	1.6%

# A section taken from the entries so far:
22. O=c1[nH]c(=O)n(C2CCCCC2)c(O)c1C=Nc1ccc(N2CCOCC2)cc1
23. O=C1NC(=O)C(=Cc2ccc(Cl)c(Cl)c2)S1
24. Cc1ccc(C)c(N(CC(=O)NCCC2=CCCCC2)S(C)(=O)=O)c1

Screen / compound no.	22	23	24
StopGo reporter	?	5.0%	-3.9%
Marburg entry inh	?	14.1%[46.1 µM]	-22.1%
Lassa entry inh	2.2%	0.0%[46.1 µM]	-2.2%
RE007 growth inh	8.4%	-5.0%	0.0%
SARS PLpro yeast	17.5%	.	0.6%
Cruzain Triton	0.0%	.	-0.8%
Cruzain inh noDet	?	.	13.2%
NS1 inh	22.5%	.	1.6%

# Additional entries:
25. O=C(NC1CCCCC1)c1sc(=S)n2c1[nH]c(=O)c1ccccc12
26. O=C(N/N=C/c1cc(Cl)ccc1O)c1cccnc1
27. COc1ccc(C(O)P(=O)(OCCC(C)C)c2ccc(N(C)C)cc2)cc1OC (stereo unspecified)
28. CCOC(=O)c1sc2c(c1C)c(=O)n(Cc1ccccc1)c(=O)n2CCN(C)C
29. CNS(=O)(=O)c1cn(CC(=O)N2CCN(c3cc(C)ccc3C)CC2)cc1S(=O)(=O)NC
30. CC(NC(=O)c1cccc(S(=O)(=O)N2CCN(C)CC2)c1)c1ccc(Cl)cc1Cl (stereo unspecified)
31. Cc1cc(=O)n(Cc2ccccc2)c(O)c1C#N
32. COCCCNC(=S)NNC(=O)c1ccccc1Br

Screen / compound no.	25	26	27	28	29	30	31	32
StopGo reporter	?	8.3%	-12.4%	-6.8%	-10.9%	-19.7%	-11.3%	-0.3%
Marburg entry inh	-24.4%&-24.4%	?	?	?	.	?	2.6%	0.3%[46.1 µM]
Lassa entry inh	6.5%	?	-9.0%	?	1.8%[46.1 µM]	-3.8%	2.1%	9.0%
RE007 growth inh	-16.4%	36.8%	8.4%	1.2%	.	-6.6%	5.4%	-4.6%
SARS PLpro yeast	-16.6%	10.6%	0.9%	2.1%	.	1.1%	5.2%	0.4%
Cruzain Triton	-2.1%	.	.	.	-8.5%	.	.	.
Cruzain inh noDet	-10.0%	.	.	.	?	.	.	.
NS1 inh	-65.9%	-38.9%	2.2%	-1.2%	.	.	?	0.6%

33. CCOc1ccccc1NC(=O)c1oc2ccccc2c1NC(=O)C1CC1
34. NC(=O)C1=C[C@@H](c2ccc(Br)cc2)C[C@@H](OCc2ccc(CO)cc2)O1
35. O=C(Nc1ccc(Cl)c(Cl)c1)OCCNC(=O)c1cccc(Cl)c1
36. CCc1cc(OCCN2C(=O)NC(C)(C)C2=O)ccc1Cl
37. COc1ccc(NC(=O)CCc2nnc3n(Cc4ccc(C)cc4)c(=O)c4ccccc4n23)cc1
38. Cc1c(C)c2ccc(OCC(=O)N[C@@H](Cc3c[nH]c4ccccc34)C(=O)O)cc2oc1=O
39. CCn1c(SCc2nc3ccccc3[nH]2)nnc1-c1ccncc1
40. COCCCNC(=S)N1CCC(C(=O)c2ccc(Cl)cc2)CC1

Screen / compound no.	33	34	35	36	37	38	39	40
StopGo reporter	2.7%	-19.2%	-20.2%	-24.1%	-11.2%	-24.1%	.	?
Marburg entry inh	?	.	-9.7%	-1.6%	11.4%[46.1 µM]	.	-7.9%	?
Lassa entry inh	?	.	-4.9%	-2.7%	.	.	10.1%	?
RE007 growth inh	-13.1%	-1.8%	?	-18.3%[3.69 µM]	.	0.8%	6.0%	88.5%
SARS PLpro yeast	4.8%	-1.3%	-3.7%	-2.3%	.	-0.5%	-6.1%	-0.7%
Cruzain Triton	.	.	-14.5%	-0.8%	1.1%	.	-0.2%	.
Cruzain inh noDet	.	.	-12.6%	3.2%	-6.3%	.	?	.
NS1 inh	-5.6%	-5.7%	1.9%	-2.8%	.	29.9%	12.7%	5.6%

41. CCn1c(=O)c2sccc2n2c(CCCC(=O)N3CCN(c4cc(C)ccc4C)CC3)nnc12
42. CC(=O)c1sc(NC(=O)c2ccccc2C)nc1C
43. CC(C)(Oc1ccc(Cl)cc1)C(=O)NCc1ccc(S(N)(=O)=O)cc1
44. CCOC(=O)C1CCCN(C(=O)CS(=O)(=O)Cc2ccccc2)C1 (stereo unspecified)

Screen / compound no.	41	42	43	44
StopGo reporter	?	23.6%	36.4%[activator]	13.3%
Marburg entry inh	.	17.6%[46.1 µM]	-11.4%[46.1 µM]	-4.9%
Lassa entry inh	16.8%[46.1 µM]	-4.5%[46.1 µM]	7.3%[46.1 µM]	-3.9%
RE007 growth inh	.	0.0%	-4.0%	-11.8%
SARS PLpro yeast	.	-6.4%	0.2%	-8.9%
Cruzain Triton	1.6%	.	.	3.3%
Cruzain inh noDet	-18.1%	.	.	4.2%
NS1 inh	.	.	.	6.2%
